Assay outcomes (PubChem BioAssay)
ugtP null kill: kills S. aureus RN4220 lacking UgtP; AID 1259309; growth inhibition, % (no concentration beside the values); 330,000 compounds, 0.54% hits; S. aureus RN4220 ugtP deletion, OD600 growth, 16 h; some inactives read as strong as hits;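 active means z-score under -3 and OD600 up to 0.15 on both plates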;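 further: plate controls were untreated wells for no effect and antibiotic for full effect; wells of about 80 µL received 100 nL stock; the first replicate is given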
RN4220 kill: kills Staphylococcus aureus RN4220 | S. aureus RN4220 growth, OD600, 16 h | 330,000 compounds, 0.33% hits | AID 1259311 | inhibition, % (test concentration not listed);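 active means z-score of -3 or lower and OD600 up to 0.18 on both plates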;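 further: plate controls were untreated cells for no effect and reference antibiotic for full effect; stock transfer was 100 nL into about 80 µL; one replicate is shown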
BJeLR lethal: BJeLR cell viability loss; BJeLR (HRASV12) viability, CellTiter-Glo ATP luminescence, 48 h; reference of the scale not given here; inhibition, % (test concentration not listed); 300,000 compounds, 0.17% hits; AID 1554;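 active means replicate mean above 50%; inconclusive means above 50% but judged a plate artefact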;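 further: 50 nL library stock added to about 25 µL; numbers are from one replicate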
Bead autofluor: counter-screen for toxin protease inhibitors: compound fluorescence. compound autofluorescence counterscreen, microsphere flow cytometry; hits give high values. fluorescence intensity (concentration not given with the values). 360,000 compounds, 3.1% hits. AID 624483;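 active means at least 3 SD above the mean of all compounds, about 16000 in these data; inconclusive means too few beads counted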;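 further: 100 nL of 1 mM stock went into each well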
Mtb hypoxia inh: reduces hypoxia-regulated biosensor signal in M. tuberculosis | M. tuberculosis hypoxia-regulated fluorescent reporter, fluorescence | fluorescence inhibition, % (no concentration beside the values) | 300,000 compounds, 0.1% hits;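 active means 35 to 45% if threefold the growth effect, above 45% if 1.5-fold the growth effect; inactive means the rest, general growth blockers included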;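 further: wells of about 50 µL received 100 nL stock; 0% = vehicle wells and 100% = reference inhibitor wells; whole bacteria with a GFP reporter of the hypoxia response; strong numbers were not always called active; many hits fall short of the cut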
PrP UTR inh: inhibition of PrP 5' UTR reporter expression; cell-based PrP 5' UTR mRNA reporter, plate reader; inhibition, % (test concentration not listed); 340,000 compounds, 0.35% hits; AID 488862;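 active means every replicate at 50% or more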;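 further: 0 = median of the neutral control wells; tested in H4 reporter cells; numbers are from one replicate; inactives centre near -14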
Mtb hypoxia inh growth: recorded beside Mtb hypoxia inh, whose call it bears; growth inhibition, %; measured here: M. tuberculosis growth (absorbance);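 0% = vehicle and 100% = reference antibiotic; read after six days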
* hit, by the source's call; ? = inconclusive; · = no result given; & = joins results of further samples. Hits appear at their usual frequency; overall some 4% were active at least once.

Molecule | BJeLR lethal | Bead autofluor | RN4220 kill | PrP UTR inh | ugtP null kill | Mtb hypoxia inh growth | Mtb hypoxia inh
CCCc1cc(=O)oc2cc(O[C@@H]3O[C@H](CO)[C@@H](O)[C@H](O)[C@H]3O)ccc12 | 0 | 3634 | 3.2 | -11 | -2 | 8 | -11
O=C(CSc1nc2[nH]ncc2c(=O)[nH]1)Nc1ccccc1F | -1 | ? | 3.3 | -19 | 5 | 9 | -1
O=C1C=C(c2ccc(C(=O)O)cc2)CC(c2ccc(Cl)cc2)C1 (configuration not stated) | · | · | 14 | · | 16 | 13 | 5
NC(=S)N/N=C/c1ccccc1 | 3 | 2663 | · | 5 | · | · | ·
Cc1cccc(N2CCN(C(=O)Cn3cccc3)CC2)c1C | 1 | 6587 | 4.6 | -13 | -8 | 5 | 3
COc1cc(NS(=O)(=O)c2ccc(NC(=S)NC(=O)c3sc4cc(F)ccc4c3Cl)cc2)nc(OC)n1 | 13 | 7636 | · | -5 | · | · | ·
CC1Cc2cc(/C=C3/SC(N4CCC(C(N)=O)CC4)=NC3=O)ccc2O1 (configuration not stated) | -10 | · | -0.4 | -14 | 2 | 1 | 0
COCCOC(=O)C1=C(C)NC(=O)NC1c1cn(-c2ccccc2)nc1-c1cccs1 (configuration not stated) | 5 | 2902 | 3.9 | -10 | -4 | 5 | 7
CCCCC#Cc1cncc(C(=O)NN)c1 | -3 | 4219 | 3.4 | -8 | 2 | 6 | 9
CN(C(=O)COC(=O)c1cc2c(s1)CCCCC2)c1ccccc1 | -12 | 5155 | 7.2 | -21 | -6 | 10 | 7
O=[N+]([O-])c1ccc(-n2cnc3ccccc32)c([N+](=O)[O-])c1 | -10 | 4034 | 57 | -24 | 32 | 26* | 42*
CC(C)Sc1nnc([C@@H](N)Cc2ccccc2)o1 | -2 | 16323* | 4.5 | -31 | 5 | 10 | 13
CC1Cc2cccc3c(O)c(C(=O)c4nn[nH]n4)c(=O)n1c23 (configuration not stated) | 5 | 2388 | 5.5 | -19 | -2 | 6 | 6
O=C(CCc1ccccc1)N=C1SC2CS(=O)(=O)CC2N1c1cccc(F)c1 (configuration not stated) | 5 | 5908 | 0.2 | -8 | -8 | 2 | -10
O=S(=O)(NCc1ccccc1)c1cnc[nH]1 | 4 | 2618 | 2.2 | -1 | -1 | · | ·
Oc1ccccc1C1=NOC(O)(C(F)F)C1 (configuration not stated) | -2 | 3821 | 1.4 | 2 | 2 | 2 | 6
Nc1c(Cl)ncnc1NCCO | 5 | 4426 | 7.7 | -33 | 7 | 9 | -2
C/C(=N\NC(=O)c1c(Cl)c(C)nn1C)c1cccc(NC(=O)C2CCCC2)c1 | 1 | 5533 | · | -5 | · | · | ·
COc1ccc(-n2c(SCC(=O)C(C)(C)C)nc3ccsc3c2=O)cc1 | -10 | 4040 | 10.0 | -24 | 1 | -6 | -4
CCn1c(SCC(=O)Nc2ccc(OC)c(OC)c2)nc2c(c1=O)SCC2 | -4 | 5100 | -2.5 | -18 | 4 | 3 | 6
Cc1ccc(CSc2ncnc3c2cnn3-c2ccc(C)cc2)cc1 | -11 | 1940 | -11 | -58 | 13 | 0 | 4
O=C1CC(c2ccco2)Cc2c1cnn2-c1nc2ccccc2s1 (configuration not stated) | -12 | 2557 | 5.8 | -4 | 4 | 8 | 14
O=S(=O)(NCC(c1cccnc1)N1CCN(c2ccccc2)CC1)c1cccs1 (configuration not stated) | -12 | 3649 | -11 | -1 | -2 | 1 | 2
CC1CC(OCC(O)CN2CCCCC2C)CC(C)(C)C1 (configuration not stated) | -1 | 3621 | 4.3 | 5 | 16 | -6 | 10
COc1nc(N)nc2nc[nH]c12 | -1 | 5653 | 9.1 | -10 | -5 | -2 | -5
N#Cc1c[nH]n2c(=O)cc(Cc3ccccc3)nc12 | -3 | 10375 | 3.0 | -16 | 2 | -9 | 10
CCCCn1cc(S(=O)(=O)c2ccccc2)c(=O)c2cc(C)ccc21 | -13 | 6132 | -0.9 | -13 | 0 | -6 | 9
CCC1CCCCN1C(=O)CSc1nc2c(c(=O)n1C)SC(C)C2 (configuration not stated) | 2 | 5885 | 1.5 | -13 | 1 | 2 | 1
C=CCCC(Cc1ccc(F)cc1)C(=O)OCC(Cc1c[nH]c2ccccc12)NC(=O)C(CC=C)CC(=O)NCCO (configuration not stated) | · | · | 5.2&3.7&2.2&0.0&2.9&3.9&5.9 | · | 3&0&9&1&-11&-13&-19 | 8&4&-11&15&9&5&6 | 13&4&-2&2&10&8&11
COc1ccc(Cl)cc1C(=O)OCC(=O)N(C)CC(=O)Nc1ccc(F)cc1 | -4 | ? | -1.0 | -7 | 1 | 13 | -2
Cc1[nH]n2c(=O)c3c(nc2c1-c1ccc(Cl)cc1)CCC3 | 3 | 3431 | 4.3 | -11 | 2 | -3 | -5
O=C(COc1ccc2c(c1)OCO2)Nc1cccc(F)c1 | -1 | 4071 | 3.3 | -50 | -2 | -1 | 11
Cn1c(=O)[nH]c(=O)c2c1nc1n2CCN1Cc1ccccc1 | -13 | 11550 | 1.9 | · | 1 | 7 | 9
Cc1cc(NC(=O)c2ccccc2)no1 | -6 | 3880 | -0.1 | · | 2 | 1 | 6
CCC(C)N=C1Sc2nc3ccc(C)cc3cc2CN1CCOC (configuration not stated) | 12 | 2664 | 1.3 | -11 | 0 | 15 | 20
Nc1ccc(/C=C/c2ccc3ncccc3c2)cc1 | -3 | 4114 | 6.1 | -10 | -8 | 5 | -8
CCCc1nn(C)c(C(=O)Nc2cccc(Cl)c2)c1Cl | 2 | 2181 | 6.6 | -12 | -4 | 9 | 10
COCc1nnc(NC(=O)c2ccc(S(=O)(=O)N3CCOCC3)cc2)o1 | -3 | 5720 | -0.8 | -13 | -7 | -5 | -9
O=C(CCc1ccc(O)c(O)c1)NNC(=S)Nc1ccc(Br)cc1Cl | -1 | 4516 | 1.4 | -16 | -1 | -2 | 20
Oc1ccccc1-n1c(-c2ccccc2)ccc1-c1ccccc1 | 17 | 3737 | · | -22 | · | · | ·
CC(OC(=O)c1oc2ccccc2c1CSC1CCCCC1)C(=O)NC(N)=O (configuration not stated) | -2 | 10060 | -6.3 | -17 | 99* | 0 | -3
COc1ccc(N(CC(=O)NCC2CCCO2)S(=O)(=O)c2ccccc2)cc1OC (configuration not stated) | 11 | 3813 | -1.2 | -40 | 12 | -4 | -4
C#CCNC(=O)C1=C[C@H](c2cn(C(C)=O)c3ccccc23)C[C@H](OCc2ccc(CO)cc2)O1 | -9 | 4102 | · | -16 | · | · | ·
CCC(C)C(NC(=O)c1ccccc1NC(=O)c1ccco1)C(=O)O (configuration not stated) | -4 | ? | 8.8 | -11 | 1 | 12 | 5
Cc1ccc(-c2nc3ncccn3c2NC(=O)C2CC2)cc1 | 3 | 3307 | -6.3 | -13 | -6 | 7 | 19
CC(C)=CCc1c(O)cc2c(=O)c3ccc(O)cc3oc2c1O | 3 | 5765 | -3.4 | -24 | 35 | · | ·
O=C(O)c1cc2ccccc2c(=O)s1 | -1 | 2425 | 4.1 | -15 | 12 | · | ·
CN1CCN(C(=O)c2cccc(NS(=O)(=O)c3ccc(Br)cc3)c2)CC1 | · | 3586 | 3.7 | -23 | 2 | 5 | 17
Cc1onc(-c2c(Cl)cccc2Cl)c1C(=O)c1ccccc1 | 5 | 4619 | 3.9 | -5 | 0 | 0 | 10
CCOc1ccccc1NC(=O)CNC(=O)Cc1ccccc1 | -17 | 4083 | 4.5 | -5 | 3 | 4 | 11
CCOc1cc(CNn2cnnc2)ccc1OCC(=O)NC1CCCCC1 | 7 | 21782* | 4.4 | 0 | 0 | 3 | 12
O=C(Cn1ncc(Cl)c(Cl)c1=O)N1CCN(Cc2ccccc2)CC1 | 16 | 4431 | 1.7 | -48 | -2 | 5 | 8
Nc1c(C(=O)c2ccccc2)sc2nsc(SCCN3CCCC3)c12 | 33 | 5120 | -2.0 | -54 | 17 | 9 | 11
Nc1nnc(CC(=O)NN=Cc2ccc(-c3ccccc3Cl)o2)s1 | · | · | 1.1 | · | -9 | 6 | 12
CCCCn1c(N)c(N(CCOC)C(=O)C2CC(=O)N(Cc3ccco3)C2)c(=O)[nH]c1=O (configuration not stated) | · | 3831 | -1.4 | -18 | 2 | 1 | -9
CC(NCC(O)COC1CCC(C(C)(C)C)CC1)c1ccccc1 (configuration not stated) | 1 | 2300 | -5.8 | -21 | -23 | 5 | 1
CCN(CC)CCN1C(=O)C(=O)/C(=C(/O)c2cnn(-c3ccccc3)c2C)C1c1cccnc1 (configuration not stated) | -5 | 4007 | -0.3 | -21 | 1 | · | ·
CN(Cc1ccccc1F)C(=O)c1cccc(NC(=O)CC2SC(N3CCCCC3)=NC2=O)c1 (configuration not stated) | · | 5842 | 2.3 | -18 | 5 | 0 | -4
CCC(C)(C)n1nnnc1CN(Cc1cccs1)Cc1cc2cc(OC)ccc2[nH]c1=O | -7 | 10243 | -2.7 | -7 | -17 | 4 | -5
O=C(COc1ccc(Cl)cc1Br)Nc1nnc(C2CC2)s1 | · | 3663 | 5.8 | -35 | -6 | -1 | 7

(more compounds)
Molecule | BJeLR lethal | Bead autofluor | RN4220 kill | PrP UTR inh | ugtP null kill | Mtb hypoxia inh growth | Mtb hypoxia inh
Cc1cccnc1NC(=O)C1c2ccccc2Oc2ccccc21 | -6 | 6809 | 2.6 | 2 | 7 | 0 | 0
O=C(NCCN1CCOCC1)c1cc(-c2ccc(Cl)cc2)on1 | -1 | 17467* | 2.5 | -15 | 7 | 3 | 7
Cc1ccc(NC(=O)CCN2C(=O)NC(C)(C)C2=O)cc1F | · | 5231 | 1.1 | -27 | 1 | 7 | 7
CC(C)(C)NC(=O)C(c1cccs1)N(Cc1ccc(F)cc1)C(=O)c1csnn1 (configuration not stated) | 3 | 4250 | 6.7 | -12 | 15 | -3 | 5
O=C(CSc1ccc2nnc(CCNC(=O)c3ccc(F)cc3)n2n1)NCc1ccco1 | 2 | 4626 | 0.1 | -1 | 1 | -3 | 4
CC1CCCCC1NC(=O)c1ccc(S(=O)(=O)NNC(=O)c2ccncc2)cc1 (configuration not stated) | 8 | 4405 | 3.0 | -12 | 8 | 2 | 4
CN(C)CCN(C(=O)c1cccs1)c1nc2cc3c(cc2s1)OCCO3 | -12 | 5550 | -1.6 | -21 | 0 | 2 | -3
O=C(Nc1cc(Cl)ccc1-n1cncn1)c1ccco1 | 0 | 6145 | 3.5 | -23 | -3 | -3 | 7

Nine compounds from above, arranged by molar mass, low to high:
Molecule | BJeLR lethal | Bead autofluor | RN4220 kill | PrP UTR inh | ugtP null kill | Mtb hypoxia inh growth | Mtb hypoxia inh
O=C(Nc1cc(Cl)ccc1-n1cncn1)c1ccco1 | 0 | 6145 | 3.5 | -23 | -3 | -3 | 7
O=C(COc1ccc(Cl)cc1Br)Nc1nnc(C2CC2)s1 | · | 3663 | 5.8 | -35 | -6 | -1 | 7
CN(C)CCN(C(=O)c1cccs1)c1nc2cc3c(cc2s1)OCCO3 | -12 | 5550 | -1.6 | -21 | 0 | 2 | -3
CC1CCCCC1NC(=O)c1ccc(S(=O)(=O)NNC(=O)c2ccncc2)cc1 (configuration not stated) | 8 | 4405 | 3.0 | -12 | 8 | 2 | 4
CC(C)(C)NC(=O)C(c1cccs1)N(Cc1ccc(F)cc1)C(=O)c1csnn1 (configuration not stated) | 3 | 4250 | 6.7 | -12 | 15 | -3 | 5
CCC(C)(C)n1nnnc1CN(Cc1cccs1)Cc1cc2cc(OC)ccc2[nH]c1=O | -7 | 10243 | -2.7 | -7 | -17 | 4 | -5
O=C(CSc1ccc2nnc(CCNC(=O)c3ccc(F)cc3)n2n1)NCc1ccco1 | 2 | 4626 | 0.1 | -1 | 1 | -3 | 4
CCN(CC)CCN1C(=O)C(=O)/C(=C(/O)c2cnn(-c3ccccc3)c2C)C1c1cccnc1 (configuration not stated) | -5 | 4007 | -0.3 | -21 | 1 | · | ·
CN(Cc1ccccc1F)C(=O)c1cccc(NC(=O)CC2SC(N3CCCCC3)=NC2=O)c1 (configuration not stated) | · | 5842 | 2.3 | -18 | 5 | 0 | -4
